High-throughput results (PubChem)
Vaccinia mCherry: vaccinia inhibition (mCherry reporter); Potency, µM (titrated, usually from 36.5 µM), without a hit: top-dose activity change, negative = inhibition, usual class: inhibitors; AID 720579; Vaccinia virus mCherry reporter infection, fluorescence; about a quarter of the inactives have no number; hit rate 0.63% among 310,000; active = well fitted inhibition curve with a large enough effect; inconclusive = small, poorly fitted or top-dose-only effect; inactive = no such curve, though single readings can be large or run the other way; tested in A549 cells; note: nearly all actives have a fitted effect of over 35% in size; inactives centre near -10
VACV Venus inh: vaccinia inhibition (Venus reporter) | Vaccinia virus Venus reporter expression, fluorescence | Potency, µM (highest dose often 36.5 µM), for inactives: at the top dose activity change, negative = inhibition, most hits filed as inhibitors | hit rate 0.46% among 330,000; active means well fitted inhibition curve with a large enough effect; inconclusive means small, poorly fitted or top-dose-only effect; inactive means no such curve, though single readings can be large or run the other way; tested in A549 cells; note: nearly all actives have a fitted effect of over 30% in size; inactives centre near -10
Starred values were filed as active, the others as inactive; i = inactive; ? = inconclusive; · = no result given; & = joins results of further samples; [ ] = remark or other dose. % is set by controls: 0 for no effect and ±100 for the full control effect; potency is the fitted concentration of half-maximal effect. Not a hit list. Share with any hit: about 0.88%.

SMILES | Vaccinia mCherry | VACV Venus inh
Cc1cc(C)c(C(CC(=O)c2cccs2)C(C#N)C#N)c(C)c1 (stereo not drawn) | ? | -20%
Cc1ccccc1C(=O)N1CCC[C@@H]1C(=O)N1CCC[C@H]1C(=O)NCc1ccncc1 | 36%[activator] | 13%
Cn1c(CCN2CCN(c3ccccn3)CC2)nc2cc(NS(=O)(=O)c3ccc(F)cc3)ccc21 | ? | -28%
COc1ccc(N2CCN(C(=S)Nc3ccccc3)CC2)cc1 | -18% | -7%
CC(CNC(=O)c1ccco1)NC(=O)c1ccco1 (stereo not drawn) | 5% | 3%
O=C1CCCCC1(CCc1ccncc1)CCc1ccncc1 | i | -17%
COc1cc(Cl)c(S(=O)(=O)NCc2ccccn2)cc1Cl | -7% | -2%
CCc1cc2cc(C)cc(C)c2nc1Cl | -6% | 6%
Cc1cc(/C=C2\SC(=S)N(C)C2=O)c(C)n1-c1ccccc1O | ? | 3%
COc1ccccc1Cn1c(CNS(=O)(=O)c2cccc([N+](=O)[O-])c2)nc2cccnc21 | i | -14%
CCCCCCCCCCCCn1ccc(=N)cc1 | -9%[7.34 µM] | -16%[7.34 µM]
CCOc1ccc(NC(=O)CC2C(=O)NCCN2C(=O)c2ccc(Cl)cc2)cc1 (stereo not drawn) | i | 3%
COc1ccc(/C=C/C(=O)NC(=S)NCc2ccccc2)cc1OC | i | -20%
O=C(C1=C[C@@H](c2ccc(C(F)(F)F)cc2)C[C@@H](OCCCCO)O1)N1CCN(Cc2ccc3c(c2)OCO3)CC1 | 0% | -29%
CC(NC(=S)Nc1cccc(F)c1)C(c1cccs1)N1CCOCC1 (stereo not drawn) | i | -7%
COc1ccc(C(C[N+](=O)[O-])c2c(C)[nH]n(-c3ccccc3)c2=O)cc1 (stereo not drawn) | 2% | 3%
COC(=O)[C@@]1(Sc2ccc(C)cc2)CC(=O)N(c2ccc(Cl)cc2)[C@@H]1c1ccccc1 | 20% | 17%
CCOC(=O)C1CCN(C(=O)c2ccc(Cl)c(S(=O)(=O)N3CCCC3)c2)CC1 | -16% | -12%
c1ccc(-c2cc3ccccc3[nH]2)cc1 | -14% | -9%
CCOC(=O)N1CCC(NC(=O)c2cc3cc4cc(OC)ccc4nc3o2)CC1 | -17% | -26%
CCOC1=CC(=O)OC(c2ccccc2)C1 (stereo not drawn) | -13% | -6%
COc1ccc(/C=C/CN2CCCC(C(=O)c3ccc(OC)c(F)c3)C2)cc1 (stereo not drawn) | -20% | -4%
COc1ccccc1C(=O)Oc1ccc(N2C(=O)CCC2=O)cc1 | -9% | -4%
Cc1ccc(NC(=O)COc2cccc(Oc3ccccc3)c2)cc1S(=O)(=O)N1CCOCC1 | ? | -19%
CCN(CC)c1cc(C)c2cc(NC(=O)c3ccc(OC)c(OC)c3)ccc2n1 | 5% | 0%
O=c1cc(-c2ccccc2)n2c(SCc3ccccc3)nnc2[nH]1 | -10% | -14%
CN(C)CCNC(=O)NC1CCCCC1 | · | -15%
CCN(CC(=O)NCc1cccs1)C(=O)CCC(=O)c1ccc(C)cc1 | -24% | -22%
CCOC(=O)CNC(=O)CSc1nccn1Cc1ccco1 | i | 1%
CC(=O)C[C@@H](O)CC(=O)[C@H]1OC(=O)CCCCCc2ccccc21 | i | -4%
CCC(Oc1ccc(F)cc1)C(=O)Nc1nc(-c2ccc(F)cc2)ns1 (stereo not drawn) | ? | ?
COc1ccc(-n2c(SCC(=O)NCC3CCCO3)nc3c(c2=O)SC(C)C3)cc1 (stereo not drawn) | -10% | -5%
O=C(O)c1cccc(N2C(=O)CSC2=S)c1 | 29% | 141%[activator]
COC(=O)c1[nH]c2c(c1C)C(=O)CC(c1ccccc1)C2 (stereo not drawn) | -9% | ?
CCOc1cc(CNC(C)C(O)c2ccccc2)cc(Cl)c1OCC (stereo not drawn) | -21% | ?
C#CCOc1c(Br)cc(/C=N\NC(=O)CN2CCOCC2)cc1OCC | · | -5%
CN=c1scc(-c2ccc(OC)cc2)n1/N=C(\C)c1cccnc1 | ? | ?
CCCN(C(=O)CSCc1ccc(Cl)cc1)c1c(N)n(Cc2ccccc2)c(=O)[nH]c1=O | i | -4%
COc1ccc(NC(=O)Nc2ccccc2SC)cc1OC | -6% | -6%
Oc1c(C(c2ccco2)N2CCN(C(c3ccccc3)c3ccccc3)CC2)sc2ncnn12 (stereo not drawn) | -7% | -19%

Part of the list above in order of number of heavy atoms, largest number first.
SMILES | Vaccinia mCherry | VACV Venus inh
COc1ccc(-n2c(SCC(=O)NCC3CCCO3)nc3c(c2=O)SC(C)C3)cc1 (stereo not drawn) | -10% | -5%
COc1ccc(NC(=O)Nc2ccccc2SC)cc1OC | -6% | -6%
COC(=O)c1[nH]c2c(c1C)C(=O)CC(c1ccccc1)C2 (stereo not drawn) | -9% | ?

More compounds follow.
SMILES | Vaccinia mCherry | VACV Venus inh
Cc1ccc(NC(=O)c2cccc(N3C(=O)C4C5CCC(C5)C4C3=O)c2)c(C)c1 (stereo not drawn) | -20% | -9%
c1ccc(SCCN2CCc3ccccc3C2)cc1 | ? | -23%
O=CN1N=C(c2ccccc2)CC1c1ccc(Cl)cc1 (stereo not drawn) | 0% | -10%
Cc1ccc(S(=O)(=O)N2C[C@H]3C(=O)C[C@@H](c4cccc5ccccc45)N(S(=O)(=O)c4ccc(C)cc4)[C@H]3C[C@H]2c2ccc(Cl)cc2)cc1 | i | -9%
COc1cc(OC)c(Nc2nc3ccc(C)cc3n3nnnc23)cc1Cl | -13% | -5%
C#CCOCCOCCOCCNc1nc(N2CCN(C(=O)C([C@@H](C)CC)n3cc(C(N)CC(C)C)nn3)CC2)nc(N2CCN(C(=O)[C@H](CCC(=O)O)n3cc(C(N)CC(C)C)nn3)CC2)n1 (stereo partly drawn) | i | -6%
O=c1cnnc(Nc2ccccc2F)[nH]1 | i | -5%
Cc1ccc(-n2nnnc2SC(C)C(=O)Nc2ccc(Cl)cn2)cc1 (stereo not drawn) | ? | -15%
O=C(NCc1ccco1)c1sc2cc(Cl)ccc2c1Cl | -7% | -17%
O=S(=O)(NCCCc1ccccc1)c1ccc(F)c(F)c1 | -15% | -2%
COCCN(C(=S)Nc1cccc(OC)c1)C(C)c1cccs1 (stereo not drawn) | -1% | -17%
O=C(NCc1cccs1)c1ccc(N2CCCC2=O)cc1 | -5% | -4%
Cc1noc(C)c1S(=O)(=O)N1CCC(C(=O)N2CCN(c3ccc(F)cc3)CC2)CC1 | -20% | -19%
COc1cccc(N2CCN(C(=O)c3ccc(CS(=O)Cc4ccc(C)cc4)o3)CC2)c1 (stereo not drawn) | ? | -11%
CC1CCN(CCCNC(=O)c2cc(Sc3ccc(F)cc3)nc3ccccc23)CC1 | i | -16%
COc1ccc(-c2nn(C)c3sc(C(=O)NCc4ccco4)cc23)cc1OC | -17% | -5%
O=[N+]([O-])c1ccc(O)c(/C=N/NC2=NS(=O)(=O)c3ccccc32)c1 | i | -12%
Cc1ccc(NC(=O)c2cnn3c2NC(=C2CC2)C=C3C(F)F)cc1C | -29% | -28%
CCCCN(CCCNC(=O)c1cc(Nc2cccc(SC)c2)nc2ccccc12)Cc1ccccc1 | ? | ?
COC(=O)c1cc(C#N)c(N2CC(C)OC(C)C2)nc1C (stereo not drawn) | i | -15%
CN(C)CCN(C(=O)c1ccccc1Cl)c1nc2c(Cl)cccc2s1 | ? | -29%
FC(F)(F)c1nc(NCC2CCCO2)c2nnn(Cc3ccccc3Cl)c2n1 (stereo not drawn) | -28% | -20%
CCOc1ccccc1N(CC)C(=O)c1ccc2c(=O)n3c(nc2c1)CCCCC3 | -14% | -8%
COc1ccc(/C=C/C(=O)Nc2ccncc2)cc1OC | -6% | -10%
Fc1ccc(NCc2ccccc2-c2nnc(-c3ccccc3Cl)o2)cc1 | -5% | -8%
O=C(CN1CCCCC1)Nc1ccc(Br)cc1[N+](=O)[O-] | -5% | -3%
COc1ccc(C(c2c(O)ccc3ccccc23)N2CCOCC2)c(OC)c1 (stereo not drawn) | i | -14%
N#Cc1ccccc1OCC(=O)Nc1ccc2c(c1)OCCO2 | 5% | -8%
O=C(c1ccc(COc2c(F)c(F)c(F)c(F)c2F)o1)N1CCOCC1 | -3% | -6%
CCOC(=O)c1ccc(NC(=O)CN(c2ccc(C)cc2)S(=O)(=O)c2c(C)noc2C)cc1 | -25% | -12%
NS(=O)(=O)c1ccc(NC(=O)COC(=O)c2ccc3c(c2)OCCO3)cc1 | -7% | 2%
COc1ccccc1C(=O)Nc1c2c(nn1-c1ccc([N+](=O)[O-])cc1)CS(=O)(=O)C2 | -15% | 2%
CCCCNC(=O)N(O)C1N(/N=C/c2cccs2)C(=S)SC1(C)C (stereo not drawn) | ? | -22%
C[C@H](CO)N1C[C@H](C)[C@@H](CN(C)C(=O)NC2CCCCC2)Oc2ccc(NC(=O)Cc3ccccc3)cc2C1=O | i | -6%
COc1cccc(NC(=O)CN(C)C(=O)c2cccnc2Sc2ccc(C)c(C)c2)c1 | -22% | -18%
CC1CCCN(C(=O)CN2C3CCC2CC(O)(c2ccc(F)cc2)C3)C1 (stereo not drawn) | -16% | -10%
N#Cc1cc2c(nc1SCc1ccc(Cl)nc1)CCCCC2 | -12% | -12%
O=C(O)CCCNC(=O)c1ccccn1 | -13% | -15%
CCOC(=O)c1nc(Nc2ccc(OC)cc2)c2ccccc2n1 | 18% | -16%&20%
O=S(=O)(NC1CCCCC1NS(=O)(=O)c1ccc(F)cc1)c1ccc(F)cc1 (stereo not drawn) | -11% | -11%
CC[C@@H](NS(=O)(=O)c1ccc(C)cc1)C(=O)Oc1ccc2c3c(c(=O)oc2c1)CCC3 | i | ?
N#Cc1ccc(COc2ccc(CCO)cc2-n2nc3ccccc3n2)cc1 | -8% | -25%
Cc1c(CCNC(=O)c2ccc(C(F)(F)F)cc2)sc2nc(-c3ccc(F)cc3)nn12 | i | -13%
CCn1c2ccccc2c2cc(N=C3SC(CC(=O)Nc4ccccc4OC)C(=O)N3C)ccc21 (stereo not drawn) | -6% | -14%
Cc1c(NC(=O)C(C)OC(=O)c2c3c(nc4ccccc24)CCC3)c(=O)n(-c2ccccc2)n1C (stereo not drawn) | i | -6%
CC(C)(C)C(=O)Nc1ccc(C(=O)Nc2cc(NC(=O)c3ccc(NC(=O)C(C)(C)C)cc3)cc(C(=O)O)c2)cc1 | -3% | -13%
N#Cc1c(N)n(-c2ccc(O)cc2)c2nc3ccccc3nc12 | -1% | -12%
COCCNC(=O)c1cc2c(c(-c3cccc(C#CC(C)(C)O)c3)n1)[C@@H](CCO)N(S(=O)C(C)(C)C)C2 (stereo partly drawn) | 13% | 2%

Grouped by structure, the compounds so far containing an aryl thioether with sulfur outside any ring.
SMILES | Vaccinia mCherry | VACV Venus inh
COC(=O)[C@@]1(Sc2ccc(C)cc2)CC(=O)N(c2ccc(Cl)cc2)[C@@H]1c1ccccc1 | 20% | 17%
O=c1cc(-c2ccccc2)n2c(SCc3ccccc3)nnc2[nH]1 | -10% | -14%
CCOC(=O)CNC(=O)CSc1nccn1Cc1ccco1 | i | 1%
COc1ccc(-n2c(SCC(=O)NCC3CCCO3)nc3c(c2=O)SC(C)C3)cc1 (stereo not drawn) | -10% | -5%
COc1ccc(NC(=O)Nc2ccccc2SC)cc1OC | -6% | -6%
c1ccc(SCCN2CCc3ccccc3C2)cc1 | ? | -23%
Cc1ccc(-n2nnnc2SC(C)C(=O)Nc2ccc(Cl)cn2)cc1 (stereo not drawn) | ? | -15%
CC1CCN(CCCNC(=O)c2cc(Sc3ccc(F)cc3)nc3ccccc23)CC1 | i | -16%
CCCCN(CCCNC(=O)c1cc(Nc2cccc(SC)c2)nc2ccccc12)Cc1ccccc1 | ? | ?
COc1cccc(NC(=O)CN(C)C(=O)c2cccnc2Sc2ccc(C)c(C)c2)c1 | -22% | -18%
N#Cc1cc2c(nc1SCc1ccc(Cl)nc1)CCCCC2 | -12% | -12%
